TAR Tat displ: HIV-1 TAR-Tat binding disruption | HIV-1 TAR RNA, Tat peptide displacement FRET; stronger effect = higher value | z-score (no concentration beside the values) | actives 0.6% (n = 100,000);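 also: score is relative to mean and SD of negative controls; some compounds called inactive have numbers as strong as hits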
CDC25B CDK2 inh: human CDC25B-CDK2/CyclinA binding inhibition; P30305+P24941; HTRF CDC25B-CDK2/CyclinA binding, anti-His/anti-Flag; stronger effect = higher value; z-score (test concentration not listed); actives 0.72% (n = 94,000); AID 1259370;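 also: score is relative to mean and SD of negative controls; strong numbers were not always called active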
Active calls of the source: *; nt = not tested or not shown; & = joins results of further samples; ! = a repeat was not active.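 The calls were made as follows: active = z-score from 3 up in half or more of its runs; inactive = the rest.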 Some of the compounds tested. The share of hits here may be higher or lower than overall.

Structure | CDC25B CDK2 inh | TAR Tat displ
CN1CC=C(c2noc(CCC(=O)N3CCN(c4ccc(Cl)cc4)CC3)n2)CC1 | -2.1 | 2.7
CCOC(=O)C1SC2(C(F)(F)C(F)F)CC1(O)c1c(c(OC)c3occc3c1OC)O2 (configuration not stated) | -1.8 | nt
Cc1cccn2c(=O)c3cc(C#N)c(=O)n(-c4nnc(SCc5ccccc5)s4)c3nc12 | 0.43 | 0.85
CCCOc1ccccc1C1SCC(=O)Nc2c1c(C)nn2C1CCOC(C)(C)C1 (configuration not stated) | -2.9 | -2.4
O=C(NNS(=O)(=O)c1ccc(C(F)(F)F)cc1)C1(O)CN2CCC1CC2 (configuration not stated) | 0.55 | nt
CN1CSC2=C(C#N)C(c3cccc(Br)c3)CC(=O)N2C1 (configuration not stated) | 5.2* | 0.16
Cn1c(=O)n(C)c2cc(CNCCc3ccccc3F)ccc21 | 0.57 | 0.88
Cc1ccc(C)c(N2CCNCC2)c1 | -0.94 | -0.05
O/N=C\c1c[nH]c2ccccc12 | -1.9 | nt
O=C1c2ccccc2-c2ccc3ccccc3c21 | -1.3 | nt
COc1cc2ccc(=O)oc2c2ccoc12 | nt | 0.53
CCOc1ccc(C2SCC(=O)Nc3c2c(=O)[nH]n3C2CCOC(C)(C)C2)cc1 (configuration not stated) | -1.2 | 0.08
Cc1ccc(-n2nc(C)c3c2NC(=O)CSC3c2ccccc2)cc1Cl (configuration not stated) | -0.65 | 3.1
Clc1cccc(CN2CCN(Cc3ccc4c(c3)OCO4)CC2)c1 | 1.4 | 0.65
CCCCCCCCCCCCCC(=O)O[C@@H]1[C@@H](C)[C@@]2(O)[C@@H](C=C(CO)C[C@]3(O)C(=O)C(C)=C[C@@H]23)[C@@H]2C(C)(C)[C@]12OC(C)=O | nt | 1.3
COP(=S)(OC)Oc1ccc([N+](=O)[O-])cc1 | nt | 0.08
COc1ccc(CC2NCCc3cc(OC)c(OC)cc32)cc1OC (configuration not stated) | -0.3&0.51 | 37*
CCCC(C)C1(CC)C(=O)N=C(S)NC1=O (configuration not stated) | nt | -0.78
CC1c2cccn2-c2ccccc2CN1C(=O)Nc1ccccc1 (configuration not stated) | nt | 0.84
CN1CC=C(c2noc(CCC(=O)N3CCN(C4CCCCC4)CC3)n2)CC1 | -0.75 | 1.4
O=C1CC(=O)N(c2ccccc2)C(=O)N1c1ccccc1 | -0.52 | -3.1
CCOc1ccc(C2NCc3ccccc3-n3cccc32)cc1 (configuration not stated) | -1.2 | 0.3
CCC(C)Cn1cc(C(=O)c2cccc3ccccc23)c2ccccc21 (configuration not stated) | nt | 1.5
CSc1ccc(C2c3cccn3-c3ccccc3CN2C(=O)NC2CCCC2)cc1 (configuration not stated) | nt | 0.68
CO[C@@H]1C[C@@H](C[C@H]2CC[C@H](C)[C@H]([C@@H](C)C(=O)O)O2)O[C@]2(O[C@](C)([C@H]3CC[C@@](C)([C@@H]4O[C@@H]([C@H]5O[C@@](O)(CO)[C@H](C)C[C@@H]5C)C[C@@H]4C)O3)C[C@H]2C)[C@@H]1C | nt | 2.8
CC(C)NC(=O)N1Cc2ccccc2-n2cccc2C1c1cc(F)cc(F)c1 (configuration not stated) | nt | -0.19
O=c1c2ccccc2nc(-c2ccco2)n1-c1ccncc1 | 5.7 | nt
Cc1cc(C)nc(-n2nc(C)c3c2NC(=O)CSC3c2ccc3c(c2)OCO3)n1 (configuration not stated) | -0.43 | -0.39
Oc1ccc2c3c1OC1[C@@H](O)CC[C@@]4(O)[C@@H](C2)N(CC2CCC2)CC[C@]314 (some centres not stated) | nt | -1.1
COc1cc2c(cc1OC)[C@@]13CCN4CC5=CCO[C@H]6CC(=O)N2[C@H]1[C@H]6[C@H]5C[C@H]43 | nt | 0.19

Arranged by molecular weight (largest number first): part of the list above.
Structure | CDC25B CDK2 inh | TAR Tat displ
CCCCCCCCCCCCCC(=O)O[C@@H]1[C@@H](C)[C@@]2(O)[C@@H](C=C(CO)C[C@]3(O)C(=O)C(C)=C[C@@H]23)[C@@H]2C(C)(C)[C@]12OC(C)=O | nt | 1.3
COc1cc2c(cc1OC)[C@@]13CCN4CC5=CCO[C@H]6CC(=O)N2[C@H]1[C@H]6[C@H]5C[C@H]43 | nt | 0.19
CC(C)NC(=O)N1Cc2ccccc2-n2cccc2C1c1cc(F)cc(F)c1 (configuration not stated) | nt | -0.19

The listing continues.
Structure | CDC25B CDK2 inh | TAR Tat displ
COP(N)(=O)SC (configuration not stated) | nt | 0.11
C=C1C2C[C@]3(C(CC2=O)[C@]24C5C[C@H]3[C@H]2N(CC)C[C@]5(C)CC[C@@H]4O)[C@@H]1O (some centres not stated) | nt | 2
CNC(=O)Oc1ccccc1OC(C)C | nt | 0.3
CO[C@H]1[C@H](O)[C@H](O[C@H]2CC[C@]3(C)C4CC[C@]5(C)C(C6=CC(=O)OC6)CC[C@]5(O)C4CC[C@@H]3C2)O[C@@H](C)[C@@H]1O (some centres not stated) | nt | 1.4
C[C@]12CCC3C(CC[C@]4(O)C[C@@H](O)CC[C@]34C=O)[C@@]1(O)CCC2C1=CC(=O)OC1 (some centres not stated) | nt | 1.7&1.8
O=C(c1cc2c(s1)-c1ccccc1OC2)N1CCC2(CC1)OCCO2 | 0.27 | nt
CC1c2cccn2-c2ccccc2CN1C(=O)Nc1ccccc1Cl (configuration not stated) | nt | 0.88
CSc1ccc(C2SCC(=O)Nc3c2c(C)nn3-c2ccccc2)cc1 (configuration not stated) | 0.51 | 1.4
OC(c1ccccc1)(c1ccccc1)C1CCNCC1 | -0.44 | nt
O=C(NCc1ccco1)N1Cc2ccccc2-n2cccc2C1c1ccc(F)cc1 (configuration not stated) | nt | -0.78
N#Cc1c(N)[n+]([O-])c2ccccc2[n+]1[O-] | -4.2 | nt
Cc1c(Cl)cccc1NC(=O)N1Cc2ccccc2-n2cccc2C1C (configuration not stated) | nt | -0.18
COc1ccc(C2NCc3c(C)cc(C)nc3-n3cccc32)cc1 (configuration not stated) | 1.7 | -2.8
O=C(NCc1ccccn1)c1ccccc1Cl | -1.8 | nt
CCOc1ccccc1C1SCC(=O)Nc2c1c(C)nn2C1CCOC(C)(C)C1 (configuration not stated) | -1.2 | 1.6
CC(C)c1nc(N2CCNCC2)c(C#N)c2c1COC(C)(C)C2 | 0.17 | 0.45
N#CC1=C(N)Oc2c(c(=O)oc3ccccc23)C1c1cccnc1 (configuration not stated) | -0.42 | nt
O=C(NC1CCCC1)N1Cc2ccccc2-n2cccc2C1c1cc(F)cc(F)c1 (configuration not stated) | nt | 0.23
N#Cc1ccc(N2CCN(C(=O)COc3ccc4[nH]cc(CCN)c4c3)CC2)cc1 | -1.8 | nt
COc1ccc(C2SCC(=O)Nc3n[nH]c(C)c32)cc1OC (configuration not stated) | -1.3 | 0.7
CN(C)CCN(C(=O)COc1ccccc1)c1nc2c(F)cc(F)cc2s1 | nt | 2.8
C[C@@H]1CC[C@H]2[C@@H](C)C(=O)O[C@@H]3OC4(C)CC[C@@H]1[C@]32OO4 | nt | 0.49
CC12CN3CC(C)(CN(C1)C3c1ccccn1)C2 (configuration not stated) | -2.7 | 2.8
Clc1cccc(-c2cccc3c2CCNC3)c1 | -0.57 | 1.1
O=[N+]([O-])c1cccnc1N1CCN(CCO)CC1 | 0.34 | nt
CC(=O)O[C@H]1C[C@@H](OC(C)=O)C(C)(C)C2C[C@@H](OC(C)=O)[C@]3(C)C(CC[C@@]4(C)[C@H](c5ccoc5)C(=O)[C@H]5O[C@]543)[C@]21C (some centres not stated) | nt | 1.3
Cc1ccccc1CN1CCCN(Cc2ccc(Cl)cc2)S1(=O)=O | nt | -0.08
Cc1cc(C)c(C2=NOC(O)(C(F)(F)F)C2)c(=O)[nH]1 (configuration not stated) | 0.64 | nt
CC(C)=CC1C(C(=O)OCc2cccc(Oc3ccccc3)c2)C1(C)C (configuration not stated) | nt | 0.38
O=C(O)COc1cc(Cl)c(Cl)cc1Cl | nt | 0.15

For reference, some entries already given.
Structure | CDC25B CDK2 inh | TAR Tat displ
COP(N)(=O)SC (configuration not stated) | nt | 0.11
C=C1C2C[C@]3(C(CC2=O)[C@]24C5C[C@H]3[C@H]2N(CC)C[C@]5(C)CC[C@@H]4O)[C@@H]1O (some centres not stated) | nt | 2
CNC(=O)Oc1ccccc1OC(C)C | nt | 0.3
CO[C@H]1[C@H](O)[C@H](O[C@H]2CC[C@]3(C)C4CC[C@]5(C)C(C6=CC(=O)OC6)CC[C@]5(O)C4CC[C@@H]3C2)O[C@@H](C)[C@@H]1O (some centres not stated) | nt | 1.4
C[C@]12CCC3C(CC[C@]4(O)C[C@@H](O)CC[C@]34C=O)[C@@]1(O)CCC2C1=CC(=O)OC1 (some centres not stated) | nt | 1.7&1.8
O=C(c1cc2c(s1)-c1ccccc1OC2)N1CCC2(CC1)OCCO2 | 0.27 | nt

(further entries)
Structure | CDC25B CDK2 inh | TAR Tat displ
Cc1[nH]c2c(C)cccc2c1C(O)CN1CCC(C)CC1 (configuration not stated) | -1.9 | -1.2
COc1ccc(-n2c(/C=C/c3ccc([N+](=O)[O-])o3)nc3ccccc3c2=O)cc1 | -1.8 | -1.2
CC(=O)[C@H]1CC[C@H]2[C@@H]3CC[C@H]4C[C@](C)(O)CC[C@]4(C)[C@H]3CC[C@]12C | 0.1 | nt
CCCCCCn1c(N)c(C(=O)OCC)c2nc3ccccc3nc21 | 1.9 | -1.9
C[C@H](N)Cc1cccc(C(F)(F)F)c1 | -2 | nt
CC1CCc2nn(CC(=O)N3CCC4(CC3)OCCO4)cc2C1 (configuration not stated) | -3.3 | nt
C[N+](C)(C)CC#CCN1CCCC1=O | -0.92 | nt
Nc1cc(C(=O)Nc2ccncc2)ccc1N1CC2CC(C1)c1cccc(=O)n1C2 (configuration not stated) | nt | 2.6
CN1CC=C(c2noc(CCC(=O)N3CCC(Cc4ccccc4)CC3)n2)CC1 | -1.1 | 0.93
CO[C@H]1[C@@H](O)[C@@H](C)O[C@H](O[C@H]2[C@H](Oc3cccc4c(O)c5c(=O)oc6ccc(C)c7c(=O)oc(c34)c5c67)O[C@H](C)[C@H](O)[C@@H]2O)[C@@H]1O | nt | 0.17
O=c1[nH]c2ccccc2c(=O)n1-c1ccc(F)cc1 | -1.3 | nt
CN(C)CCN(C(=O)COc1ccccc1)c1nc2ccc(F)cc2s1 | nt | 0.48
COC1C(O)CC(OC2CC(Oc3cc4cc5c(c(O)c4c(O)c3C)C(=O)[C@@H](OC3CC(OC4CC(OC6CC(C)(O)C(OC(C)=O)C(C)O6)C(O)C(C)O4)C(O)C(C)O3)[C@H]([C@H](OC)C(=O)[C@@H](O)[C@@H](C)O)C5)OC(C)C2OC(C)=O)OC1C (some centres not stated) | nt | 5.2
CCCCCCC(C)(C)c1ccc([C@@H]2CCC[C@H](O)C2)c(O)c1 | nt | 1.2
O=C(COc1ccccc1Cl)N(c1ccccc1Cl)C1CN2CCC1CC2 (configuration not stated) | -0.01 | 0.18
CCc1ccc(C2SCC(=O)Nc3n[nH]c(C)c32)cc1 (configuration not stated) | -2.7 | 1.8
COc1ccc2c3c([nH]c2c1)C(C)=NCC3 | nt | -1.3
C[C@]12CC[C@H](O)C[C@H]1CC[C@@H]1[C@@H]2CC[C@]2(C)[C@@H](C3=CC(=O)OC3)[C@@H](O)C[C@]12O | nt | 1.6
N#CC(C#N)=Cc1ccc([N+](=O)[O-])s1 | -1.6 | nt
CC[C@@]1(O)C[C@H](O[C@H]2C[C@H](N(C)C)[C@H](O)[C@H](C)O2)c2c(cc3c(c2O)C(=O)c2c(O)ccc(O)c2C3=O)[C@H]1C(=O)OC | nt | -0.25
O=S1(=O)N(Cc2ccccc2)CCCN1Cc1ccccc1Cl | nt | 0.62
CCCCCn1cc(C(=O)Cc2ccccc2C)c2ccccc21 | nt | -0.25
Cn1c(=O)n(C)c2cc(CNCCc3c[nH]c4ccccc34)ccc21 | -1.6 | 2.1
Cc1cc2c(C(C)C)c(O)c(O)c(C=O)c2c(O)c1-c1c(C)cc2c(C(C)C)c(O)c(O)c(C=O)c2c1O | -0.45 | 26*!
CC1=C2C[C@H]3[C@@H](CC=C4C[C@@H](O)CC[C@@]43C)[C@@H]2CC[C@]12O[C@@H]1C[C@H](C)CN[C@H]1[C@H]2C | nt | 1.7
CC(C)(C)c1o[nH]c(=O)c1CC(N)C(=O)O (configuration not stated) | -0.78 | nt
O=C1C2CCN(CC2)C1Cc1ccc(OCCOc2ccccc2)cc1 (configuration not stated) | -0.64 | 0.32
NCCc1csc2c1CCCC2 | nt | 1.1
CCC(C)(C)C(=O)NC1CCSC1=O (configuration not stated) | -2.6 | 1
CCC(COC(=O)NC)NC(=O)Oc1ccccc1 (configuration not stated) | -0.61 | 0.98

Structure | CDC25B CDK2 inh | TAR Tat displ
CC1CN=C(NCc2ccccc2)S1 (configuration not stated) | -1.7 | 1.9
NCCc1c[nH]c2ccc(O)cc12 | -1.4 | nt
CN1CC=C(c2noc(CCC(=O)Nc3cccnc3)n2)CC1 | -0.2 | 2.5
Cc1ccc(C)c(C2SCC(=O)Nc3n[nH]c(C)c32)c1 (configuration not stated) | -1.8 | 3.2
Nc1ncnc2c1ncn2[C@@H]1O[C@H](COP(=O)(O)CP(=O)(O)OP(=O)(O)O)[C@H](O)C1O (some centres not stated) | -2 | nt
CCC1(C(=O)c2ccc(C)cc2)C2c3cc(Br)ccc3OC(=O)C21C(=O)OC (configuration not stated) | 0.19 | 1.2
CN1CCN(c2nc3ncccc3o2)CC1 | -0.37 | 1.1
Cc1c(C(=O)N2CCC3(CC2)OCCO3)oc2ccc(S(=O)(=O)N3CC(C)CC(C)C3)cc12 (configuration not stated) | -0.89 | nt
O=c1nc2oc(-c3ccccc3)cc(-c3ccccc3)c-2c(=O)[nH]1 | 2.5 | nt
C[C@@H]1O[C@H](n2cnc3c(N)ncnc32)C[C@H]1O | nt | 1.8
